Screens as filed in PubChem.
MARV entry inh: Marburg virus entry inhibition; Potency, µM (top dose mostly 49.2 µM), for inactives: top-dose activity change, negative = inhibition, most hits filed as inhibitors; Marburg virus pseudotype entry/binding inhibition, cell-based; control for the full effect not named in the record; many of its hits are not listed in these tables; AID 720532; 18,000 tested, 6.5% active; active means well fitted inhibition curve with a large enough effect; inconclusive means small, poorly fitted or top-dose-only effect; inactive means no such curve, though single readings can be large or run the other way; tested in HEK293 cells; also: luciferase read-out
LASV entry inh: Lassa virus entry inhibition; 18,000 tested, 4.1% active; Lassa virus pseudotyped entry inhibition, cell-based qHTS; control for the full effect not named in the record; many of its hits are not listed in these tables; Potency, µM (top dose mostly 49.2 µM), for the others: top-dose activity change, negative = inhibition, actives largely listed as inhibitors; AID 720533; active = well fitted inhibition curve with a large enough effect; inconclusive = small, poorly fitted or top-dose-only effect; inactive = no such curve, though single readings can be large or run the other way; tested in HEK293 cells; also: luciferase read-out
Active calls of the source: *; ? = inconclusive; & = joins results of further samples; [ ] = dose if it differs, or a comment. % is scaled to controls: 0 for no effect and ±100 for the full control effect; potency is read from the fitted curve at half-maximal effect. The list is partial; the hit share may differ from the screen's.

SMILES | MARV entry inh | LASV entry inh
COc1ccc(-c2oc3c(CC=C(C)C)c(O[C@H]4OC(CO)C(O)C(O)C4O)cc(O)c3c(=O)c2O[C@@H]2OC(C)C(O)C(O)C2O)cc1 (stereo not given in full) | 10% | 0%
CCc1cc(-c2n[nH]c(C)c2-c2ccc3c(c2)OCCO3)c(O)cc1O | ? | ?
O=C(Nc1ccc([N+](=O)[O-])cc1)Nc1ccc([N+](=O)[O-])cc1 | ? | -19%
CCN(CC)S(=O)(=O)c1ccc(C(=O)O)cc1 | 6% | -18%
CCN(CC)CCOC(=O)C(c1ccccc1)c1ccccc1 | 3% | -22%
CCOC(=O)Nc1ccc(NCc2ccc(F)cc2)nc1N | 7%&7% | ?
COc1c(O)cc2c(c1O)[C@@H]1O[C@H](CO)[C@@H](O)[C@H](O)[C@H]1OC2=O | 19%[17.8 µM] | -7%[17.8 µM]
CCCc1cc(C(N)=S)ccn1 | 1% | -5%
COC(=O)Nc1nc2ccc(S(=O)c3ccccc3)cc2[nH]1 (stereo not given) | ? | ?
O=C(OC1C[C@@H]2CC3C[C@H](C1)N2CC3=O)c1c[nH]c2ccccc12 (stereo not given in full) | -9% | ?
COc1ccccc1OC(=O)Oc1ccccc1OC | -11% | -18%
CC(C)(C(=O)c1cccnc1)c1cccnc1 | 12%[17.8 µM] | -3%[17.8 µM]
CC(C)[C@@H]1C(=O)N(S(C)(=O)=O)[C@H]2CCN(C(=O)/C=C\CN3CCCCC3)[C@@H]12 | -25% | -7%
OCCOCCOCCO | 5% | -13%
Nc1ncnc(Nc2ccccc2)n1 | 2% | 0%
CC1CCc2c(N3CCC(O)CC3)c(F)cc3c(=O)c(C(=O)O)cn1c23 (stereo not given) | 16% | -12%
CCCCN(CCCC)CC(O)c1cc(Cl)cc2c1-c1ccc(Cl)cc1/C2=C/c1ccc(Cl)cc1 (stereo not given) | ? | ?
CC[C@@H](C)[C@H](N)C(=O)O | 4% | -3%
C#C[C@]1(O)CC[C@H]2[C@@H]3CCC4=CC(=O)CC[C@@H]4[C@H]3CC[C@@]21CC | -18% | -26%
COc1cc2[nH]c(=O)[nH]c(=O)c2cc1OC | 22% | -2%
CCOC(=O)Nc1ccc2c(c1)N(C(=O)CCN1CCOCC1)c1ccccc1S2 | 18%[17.8 µM] | -12%[17.8 µM]
Cc1ccc(C(=O)C(C)CN2CCCCC2)cc1 (stereo not given) | -1%&-26% | -15%&-16%
CC1(C)Oc2ccc(C#N)cc2[C@@H](N2CCCC2=O)[C@@H]1O | 7%&10% | 0%&2%
CN1C(=O)CC(C)(c2ccccc2)C1=O (stereo not given) | 5% | 6%
NC(=O)c1ccc([N+](=O)[O-])cc1Cl | 9% | 2%
Cc1ccsc1/C=C/C1=NCCCN1C | 1% | -7%
CCCCCCCCCCOCC(O)CN (stereo not given) | ? | 32µM*
COc1cc(C(=O)NCCCCCC(=O)O)cc(OC)c1OC | 26% | -12%
NC(=O)NC(=O)Cc1ccccc1 | -18% | -2%
CCC(Cc1c(I)cc(I)c(N)c1I)C(=O)O (stereo not given) | 7% | -14%
O=C1c2ccccc2C(=O)c2c(O)c(O)cc(O)c21 | -11%&2% | -8%&-13%
Cc1ccc(Nc2c(F)cccc2Cl)c(CC(=O)O)c1 | -8% | -11%
COc1cc2oc(=O)ccc2cc1O | 10% | -13%
COC(=O)c1ccccc1C(=O)c1ccc(OCCN2CCCCC2)cc1 | ? | 0%
Cc1c(C(C)C)c(=O)n(-c2ccccc2)n1C | -6% | 4%
Cc1cccc(C)c1NC(=O)c1cc(S(N)(=O)=O)c(Cl)cc1O | 12% | -20%
CN1CCN(C(=O)C2CCCCC2)CC1 | -11% | -5%
CCN1CC(CCN2CCOCC2)C(c2ccccc2)(c2ccccc2)C1=O (stereo not given) | 10% | ?
N#C/C(=C1\SCC(c2ccccc2Cl)S1)n1ccnc1 (stereo not given) | 15% | -11%
CN1CCN(c2c(F)cc3c(=O)c(C(=O)O)cn4c3c2SCC4)CC1 | 15% | -7%

Four structures out of the list, ordered by heavy-atom count, rising.
SMILES | MARV entry inh | LASV entry inh
COc1cc2oc(=O)ccc2cc1O | 10% | -13%
CN1C(=O)CC(C)(c2ccccc2)C1=O (stereo not given) | 5% | 6%
Cc1ccc(Nc2c(F)cccc2Cl)c(CC(=O)O)c1 | -8% | -11%
CN1CCN(c2c(F)cc3c(=O)c(C(=O)O)cn4c3c2SCC4)CC1 | 15% | -7%

Further compounds.
SMILES | MARV entry inh | LASV entry inh
C[C@@H]1[C@H](C)CC[C@@]2(C(=O)O[C@H]3O[C@@H](CO[C@H]4O[C@@H](CO)[C@@H](O[C@H]5O[C@@H](C)[C@@H](O)[C@@H](O)[C@@H]5O)[C@@H](O)[C@@H]4O)[C@@H](O)[C@@H](O)[C@@H]3O)CC[C@]3(C)C(=CC[C@H]4[C@@]5(C)C[C@@H](O)[C@@H](O)[C@](C)(CO)[C@@H]5CC[C@@]43C)[C@@H]12 | 8%[17.8 µM] | 0%[17.8 µM]
c1ccc(CNCCNCc2ccccc2)cc1 | ? | 2%&-18%
O=C(NCCN1CCOCC1)c1ccc(Cl)cc1 | 6%&5% | -19%&-6%
CN1CCN(CCCN2c3ccccc3Sc3ccc(S(=O)(=O)N(C)C)cc32)CC1 | ? | -13%[17.8 µM]
Nc1ccc(S(=O)(=O)NCc2ccccc2)cc1 | 20% | 20%
O=C(O)CCCCCCCC(=O)O | 3%&10% | -21%&19%
CN(C)CCOC(=O)C(c1ccccc1)C1(O)CCCC1 (stereo not given) | -12%&25% | 11%
Nc1cc(=O)[nH]c(N)n1 | 3%&1% | -8%&-3%
OCC(O)CN1CCN(c2ccccc2)CC1 (stereo not given) | -10% | 5%
C[C@@H]1CC(=O)NN=C1c1ccc(NN=C(C#N)C#N)cc1 | -9% | -25%
COc1ccc([C@@H]2CNC(=O)C2)cc1OC1CCCC1 | 2%&15%&4% | -2%&0%&-7%
CN1CCN(c2cc3c(cc2F)c(=O)c(C(=O)O)cn3-c2ccc(F)cc2)CC1 | 8% | 13%
CN=C(NC#N)Nc1ccc(C2=NNC(=O)CC2C)cc1 (stereo not given) | 3%&0%&10% | -8%&5%&-6%

Compound profiles, from the list above.
CN1CCN(c2cc3c(cc2F)c(=O)c(C(=O)O)cn3-c2ccc(F)cc2)CC1 across the screens: MARV entry inh = 8%; LASV entry inh = 13%
Nc1ccc(S(=O)(=O)NCc2ccccc2)cc1 across the screens: MARV entry inh = 20%; LASV entry inh = 20%
COc1ccc([C@@H]2CNC(=O)C2)cc1OC1CCCC1 across the screens: MARV entry inh = 2%&15%&4%; LASV entry inh = -2%&0%&-7%
